# Screens (PubChem)
# KCNQ2 enhance: potentiators of rat KCNQ2 potassium channel. actives 0.54% (n = 310,000). Potassium voltage-gated channel subfamily KQT member 2 (Rattus norvegicus), O88943. CHO-K1 KCNQ2, FluxOR thallium flux fluorescence; stronger effect = higher value. B-score at 10 µM. AID 2239, 2010;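 active means fluorescence ratio B-score at least 3 SD of library B-scores, with initial fluorescence B-score within 3 SD, cut at about 5.3 in these data; same plate scores as AID 2156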;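 further: B-score of peak minus minimum over baseline fluorescence ratio after K+ and Tl+ stimulus; positive B-score means potentiation of KCNQ2 with more thallium influx and brighter signal; only the inactives scoring about 0 or higher are listed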
# Target sequence (O88943 whole entry, looked up): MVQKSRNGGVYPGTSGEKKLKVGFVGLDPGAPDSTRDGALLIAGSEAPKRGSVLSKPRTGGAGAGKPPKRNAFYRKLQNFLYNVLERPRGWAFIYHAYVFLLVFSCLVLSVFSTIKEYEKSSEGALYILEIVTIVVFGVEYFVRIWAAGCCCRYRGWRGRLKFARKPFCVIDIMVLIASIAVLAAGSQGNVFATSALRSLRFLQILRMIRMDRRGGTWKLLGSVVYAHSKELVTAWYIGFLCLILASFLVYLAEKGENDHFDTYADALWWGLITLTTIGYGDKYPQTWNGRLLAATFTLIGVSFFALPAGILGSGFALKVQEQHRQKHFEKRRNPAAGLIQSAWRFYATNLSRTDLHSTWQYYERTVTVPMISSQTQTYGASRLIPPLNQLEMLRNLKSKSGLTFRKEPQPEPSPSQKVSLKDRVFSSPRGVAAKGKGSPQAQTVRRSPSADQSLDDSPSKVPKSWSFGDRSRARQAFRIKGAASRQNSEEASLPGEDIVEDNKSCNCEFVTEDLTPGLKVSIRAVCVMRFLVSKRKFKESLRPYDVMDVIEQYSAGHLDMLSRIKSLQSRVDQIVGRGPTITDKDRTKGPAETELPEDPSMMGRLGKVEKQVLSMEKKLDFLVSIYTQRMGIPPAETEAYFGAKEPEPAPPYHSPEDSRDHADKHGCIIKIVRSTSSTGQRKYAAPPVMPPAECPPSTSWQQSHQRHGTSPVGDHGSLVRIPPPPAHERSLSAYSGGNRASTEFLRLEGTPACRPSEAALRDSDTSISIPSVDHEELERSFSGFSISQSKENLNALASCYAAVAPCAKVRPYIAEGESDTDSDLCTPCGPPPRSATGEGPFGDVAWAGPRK
# KCNQ2 enhance baseline: also measured in KCNQ2 enhance; calls as there; B-score; compound at 10 µM; measured here: initial fluorescence intensity artifact check;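 brightness before thallium and not channel activity; 0 = typical well and far values either way flag optical interference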
# * = called active by the depositor. Some of the compounds tested (hit frequency here may not be typical).
mol,KCNQ2 enhance,KCNQ2 enhance baseline
COc1ccc(CNc2ccc(S(N)(=O)=O)cc2)c(OC)c1OC,1.2,-0.33
CC(=O)OCCc1c2ccccc2c(CCCN(C)C)c2ccccc12,0.78,0.06
COc1cc2c3c(c1)/C(=C1/SC(=S)NC1=O)C(=O)N3C(C)(C)C=C2C,1.6,-0.14
COc1ccc(CNC(=O)CN2CCN(c3ccccc3O)CC2)cc1OC,0.4,1.6
CC(C)C(NC(=O)C(NC(=O)C1O[C@@H]2OC(C)(C)O[C@@H]2[C@H]2OC(C)(C)O[C@@H]12)C(C)C)C(=O)O (some centres undefined),0.01,2.5
CCOC(=O)C1CCN(c2c(NCCN3CCCCC3C)c(=O)c2=O)CC1 (centres undefined),0.89,-1.1
O=C(O)CCCNS(=O)(=O)c1ccccc1,0.17,-0.62
O=c1c2c3c(sc2nc2n1CCC2)CCC3,0.06,0.01
CCOC(=O)N1CCN(C(=O)C2CCCN(S(=O)(=O)c3ccccc3)C2)CC1 (centres undefined),0.11,1.4
Cc1c(NC(=O)c2nn3c(C(F)(F)F)cc(-c4ccccc4)nc3c2Cl)c(=O)n(-c2ccccc2)n1C,1.3,-0.96
CSc1nnc(C)c(=O)n1COC(=O)c1ccc(S(=O)(=O)N2CCOCC2)cc1,1.4,-0.24
CC(C)C[C@H](N)c1cn([C@@H](Cc2ccc(O)cc2)C(=O)N2CCNCC2)nn1,0.04,0.2
CCCn1c(N)c(C(=O)CSc2nc3ccccc3s2)c(=O)[nH]c1=O,0.09,1.4
COc1ccc(NC(=O)C(CCSC)NC(N)=O)cc1NS(=O)(=O)c1ccc(F)cc1 (centres undefined),0.34,-0.69
Cc1cc(=O)[nH]c(SCCOc2ccc(OC(C)C)cc2)n1,0.59,-1.3
CC(C)OC(=O)c1ccc(COC(=O)c2cnccn2)cc1,0.73,0
O=C(Nc1nnc(COc2ccc(Cl)cc2)s1)c1cccs1,0.68,-2.5
CCOc1ccccc1CN1C(=O)NC2(CCCCCC2)C1=O,0.28,1.8
CC1=C(C(=O)c2ccccc2)C(c2ccc(N3CCOCC3)cc2)NC(=O)N1 (centres undefined),0.85,-0.02
CCOc1ccc(OCCC(=O)OC(C)C(=O)Nc2ccc(C(C)=O)cc2)cc1 (centres undefined),0.08,0.1
CCn1c(SCC(=O)Nc2ccc3c(c2)OCO3)nnc1-c1ccccc1O,1.8,-2.3
COc1ccc(C(C(=O)Nc2ccc(C(C)C)cc2)N(C)C(=O)c2ccc(=O)[nH]c2)cc1 (centres undefined),0.76,-0.23
CC(C)c1c(C(=O)N/N=C/c2cccc(OCc3ccccc3)c2)nnn1-c1nonc1N,2.4,-0.25
CCCCOc1ccc(NC(=O)Cn2c(=O)ccc3c(C)cc(C)nc32)cc1,0.1,-0.1
O=C(OCc1nc2ccccc2s1)C1CCN(C2=NS(=O)(=O)c3ccccc32)CC1,0.91,-0.76
CCCN(CCC)CCCNC(=O)C1CCC(CNS(=O)(=O)c2cccc3nsnc23)CC1 (centres undefined),0.38,-1
CC(C)N1CCC2(CC1)C(C#N)=C(N)NC(S)=C2C#N,0.3,2.6
Fc1ccc(NC(=S)NCc2ccccc2)cc1,1.1,0.36
CSc1cccc(NC(=O)Nc2ccc(Cl)cc2)c1,1.6,-1.3
O=C(c1ccc2nc(Cc3cccc(Cl)c3)oc2c1)N1CCC(O)CC1,0.58,-2
N#CC(c1ccc(O)cc1)c1ncc(C(F)(F)F)cc1Cl (centres undefined),2.2,-0.96
C=CC[C@@]12C=C(OC)C(=O)C(OC)=C1O[C@H](c1ccc3c(c1)OCO3)[C@H]2C,0.85,-0.11
NS(=O)(=O)c1cc(C(=O)OCC(=O)Nc2ccc(Cl)cc2[N+](=O)[O-])ccc1Cl,0.61,1.8
CCN(CC)CCOC(=O)c1ccc(NC(=O)CCCN2C(=O)/C(=C\c3cccs3)SC2=S)cc1,1.4,-1.5
COc1ccc(N(CC(=O)Nc2ccccc2OC)S(=O)(=O)c2ccc(OC)c(OC)c2)cc1,0.59,-0.82
CCOC(=O)N1CCN(C(=O)CSc2nnc3[nH]c(=O)c(C)c(C)n23)CC1,1.9,-0.32
O=S(=O)(c1ccc2nc(-c3ccccc3)[nH]c2c1)N1CCN(c2cccc(Cl)c2)CC1,0.04,0.84
CN=C(Nc1cc(C)nn1CCC#N)c1ccccc1F,0.34,-0.07
COc1ccc(/C(O)=C2/C(=O)C(=O)N(CCCN(C)C)C2c2cccc(Cl)c2)cc1OC (centres undefined),0.57,-0.77
CNC(=O)c1c(NC(=O)c2ccc(N3C(=O)CCC3=O)cc2)sc2c1CCC(C)C2 (centres undefined),0.56,0
CCN(C(=O)c1ccccc1)c1ccc([N+](=O)[O-])cc1,0.1,1.4
COc1ccccc1Nc1nnc(SCC2CCCCO2)s1 (centres undefined),0.01,0.99
COc1ccc(OCc2cc(C(=O)NCCc3ccccc3)no2)c(Cl)c1,0.41,-0.28
CCN(CC)S(=O)(=O)c1ccc(OC)c(N)c1,1.5,0.8
O=C(Cn1ncn2c(cc3ccccc32)c1=O)NCc1ccco1,0.25,-0.16
O=C(Cn1cnc([N+](=O)[O-])c1)c1ccc(F)cc1,0.45,-1.5
Cc1cc(C(=O)N/N=C/c2cn(C)nc2C)c2ccccc2n1,0.76,-1.6
Clc1ccc(-c2nc3ccccc3[nH]2)cn1,4.2,0.14

# The list goes on, overlapping the part above by 5 compounds.
mol,KCNQ2 enhance,KCNQ2 enhance baseline
CCN(CC)S(=O)(=O)c1ccc(OC)c(N)c1,1.5,0.8
O=C(Cn1ncn2c(cc3ccccc32)c1=O)NCc1ccco1,0.25,-0.16
O=C(Cn1cnc([N+](=O)[O-])c1)c1ccc(F)cc1,0.45,-1.5
Cc1cc(C(=O)N/N=C/c2cn(C)nc2C)c2ccccc2n1,0.76,-1.6
Clc1ccc(-c2nc3ccccc3[nH]2)cn1,4.2,0.14
COc1cccc(CN2CC(C(=O)NCCc3ccccc3C(F)(F)F)CCC2=O)c1 (centres undefined),0.04,0.18
Cc1ccc(C)c(NC(=O)CSc2ncnc3nc[nH]c23)c1,0.19,2
COC(=O)c1cn(NC(=O)Cn2nc([N+](=O)[O-])c(Br)c2C)c(=O)c2ccccc12,2.1,0.68
CC(=O)Nc1ccc(NC(=O)c2cccc(Oc3ccccc3)c2)cc1,1.2,-0.4
COc1ccc(CNC(=O)Cn2cc(C(F)(F)F)ccc2=O)cc1,0.17,0.86
Cc1ccc(-c2c(C(=O)N/N=C/c3ccc4c(c3)OCO4)nnn2-c2nonc2N)cc1,1.5,-0.91
COC(=O)c1nnn(-c2nonc2N)c1CSc1nc2ccccc2s1,0.01,2
O=C(O)CCC(=O)Nc1ccc(NC(=O)c2ccc(Cl)cc2Cl)c(Cl)c1,0.5,1.5
COc1ccc(NC2=C(NC(C)=O)C(=O)c3ccccc3C2=O)cc1,1.2,-2.4
CC1CCCN(Cc2nc3c(c(=O)n(C)c(=O)n3C)n2CC(N)=O)C1 (centres undefined),0.38,-0.34
CCOc1cc(/C=C2/C(=O)N(c3ccccc3)N=C2C)ccc1OC(=O)c1ccco1,0.33,-0.22
O=C(Cc1ccccc1)N/N=C/c1cccs1,1.1,-0.64
O=C(NC(=O)N1CCCCC1)c1ccccc1,0.14,0.72
O=C(COc1ccc(Cl)cc1)N(Cc1ccccc1)c1nc(-c2ccccc2)cs1,0.36,-1
Cc1ccc(-c2ccc(SCC(=O)NC3CCCC3)nn2)cc1,0.75,-1.9
COc1ccccc1-c1c(-c2ccc(O)cc2O)n[nH]c1C(F)(F)F,1.7,-0.04

# Compound profiles (already shown):
# CC1CCCN(Cc2nc3c(c(=O)n(C)c(=O)n3C)n2CC(N)=O)C1 (centres undefined) as listed: KCNQ2 enhance: 0.38; KCNQ2 enhance baseline: -0.34
# O=C(NC(=O)N1CCCCC1)c1ccccc1 as listed: KCNQ2 enhance: 0.14; KCNQ2 enhance baseline: 0.72

# The listing continues.
mol,KCNQ2 enhance,KCNQ2 enhance baseline
CC(C)C[C@@H](CN=[N+]=[N-])N1CCN(C)CCC1=O,0.06,-0.2
O=C(Nc1ccc(O)cc1)C1CCCO1 (centres undefined),0.02,-0.79
O=C(CCC(=O)c1ccc(Cl)cc1)OCc1nc2ccsc2c(=O)[nH]1,0.01,-0.11
N#CC1(c2nc3ccccc3[nH]2)CC1c1ccc2c(c1)OCO2 (centres undefined),1.4,-0.84
O=C(COC(=O)C1CCC1)Nc1cccc(Cl)c1,0.01,-0.72
CN1CCN(C(=O)c2ccc(C(F)(F)F)cc2)CC1,0.05,-1.1
COc1ccc(N(CC(=O)Nc2cccc(C)c2C)S(=O)(=O)c2c(C)[nH]c(=O)[nH]c2=O)cc1,0.01,-0.83
O=C(N=Nc1c(O)[nH]c2ccccc12)c1cccs1,1.2,-0.31
CCOc1nc2cnccc2n(CC(=O)Nc2ccccc2F)c1=O,1.5,1
COc1ccc(C2(CNC(=O)CCC(=O)O)CCCC2)cc1,0.67,-0.11
COc1ccc(C2=NN3C(C2)c2ccccc2OC32C(=O)N(C)c3ccccc32)cc1 (centres undefined),0.41,-1
COc1ccc2sc(N(CCCN(C)C)C(=O)c3ccc(S(=O)(=O)N4CCc5ccccc5C4)cc3)nc2c1,0.09,-1.2
CCCC(=O)Nc1nc2c(OC)ccc(OC)c2s1,0.03,0.02
CCOc1ccccc1C(=O)Nc1nnc(SCC(=O)N2CCOCC2)s1,1.4,-0.43
CCOC(=O)CN1CCc2c(C)nc3c(-c4ccc(OC)c(OC)c4)cnn3c21,1.9,0.75
CCn1c(SCC(=O)N2CCOCC2)nnc1C(C)NC(=O)c1ccccc1 (centres undefined),0.66,0
COc1ccc(C(CNC(=O)CN2C(=O)NC3(CCCC3)C2=O)N(C)C)cc1 (centres undefined),2.4,-1.4
O=[N+]([O-])c1ccc(/C=N/n2c(-c3ccccc3)n[nH]c2=S)cc1,0.33,0.43
Cc1ccc(NC(=O)CN2C(=O)CNC2=O)cc1,1.4,-0.16
COc1cccc(/C=C/C(=O)OCC(=O)c2cc(C)n(CC3CCCO3)c2C)c1OC (centres undefined),1.3,0.66
c1cc(-c2nnc(-c3ccncc3)o2)ccn1,0.58,0.13
Cc1c(/C=N/NC(=O)CNc2ccccc2)c2ccccn2c1C(=O)c1ccncc1,0.66,0.74
COc1ccc(N2CCN(CC(=O)Nc3sccc3C#N)CC2)cc1,0.61,-0.04
O=C(CCNC(=O)c1ccc([N+](=O)[O-])cc1)Nc1ccc(S(=O)(=O)N2CCOCC2)cc1,0.1,-1.1
N#Cc1ccccc1NC(=O)CNc1ccc(Cl)c(C(F)(F)F)c1,0.03,0.69
COCCCNC(=O)CN1CCN(Cc2ccccc2Cl)C1=O,0.24,-1.4
COc1cccc(C2/C(=C(/O)c3ccc4c(c3)OCO4)C(=O)C(=O)N2CCN2CCOCC2)c1 (centres undefined),1.5,-3
Cc1ccn2c(c1)nc(=S)n2C(=O)c1ccccc1,1.2,-0.23
COc1cc(C(c2c(C)[nH][nH]c2=O)c2c(C)[nH][nH]c2=O)ccc1OS(=O)(=O)c1ccccc1,2.3,-0.48
O=c1[nH]c2ccccc2nc1NCc1ccccc1,0.87,-0.1
O=C(CN1CCN(c2ccc(O)cc2)CC1)NC(c1ccccc1)c1ccccc1,1.5,0.21
CC(C)(C)c1ccc(C(=O)N2CCC3(CC2)NCCc2[nH]cnc23)cc1,0.47,1
Cc1ccnc(NC(=S)NC(=O)/C=C/c2ccccc2)c1,0.55,-1.1
CCOC(=O)c1c(NC(NC(C)=O)C(Cl)(Cl)Cl)sc(C(C)=O)c1C (centres undefined),0.7,0.21
Oc1ccccc1N1CCN(C(=S)Nc2ccc(SC(F)F)cc2)CC1,0.75,-0.66
Cc1ccccc1OCC(=O)Nc1ccncc1,1.9,-0.16
CCOCC(=O)Nc1nc(C)cc(C)n1,0.01,-1
CSc1nc(-c2ccco2)nn1C(=O)c1ccccc1Cl,0.32,1.1
Cc1cc(Cl)ccc1NC(=S)NCCCO,0.64,1.3
COC(=O)c1cc(Br)c(N)cc1OC,0.2,-0.65
Cn1c(-c2ccc(F)cc2)cnc1SCC(=O)N1CCCCC1,0.24,0
Cc1ccc(OCCCCN2CCCC(C)C2)c([N+](=O)[O-])c1 (centres undefined),1.1,1.6
O=C(CSc1nc2ccccc2o1)N/N=C/c1ccco1,2,0.63
COc1ccc(Br)cc1CNC(=O)C1CCN(S(=O)(=O)N2CCCCC2)CC1,1.9,0.8
COP(=O)(OC)c1nc(-c2ccccc2)oc1NCc1ccccc1,0.48,1.2
COc1cccc(N(C(=O)c2snc(C(N)=O)c2N)C(C(=O)NCC2CCCO2)c2ccc3ncccc3c2)c1 (centres undefined),0.6,0.53
Cn1c(SCc2ccc(Br)cc2)nc2c(c1=O)SCC2,0.24,0.03
Cc1ccc(-c2nc(CN(C)Cc3ccc4nccnc4c3)c(C)o2)s1,0.04,-1.7
N#Cc1ccccc1NC(=O)COC(=O)CSc1nc2ccccc2o1,0.05,-0.01
Cc1cc(C)n2nc(-c3cnn(C)c3C(F)(F)F)c(Cl)c2n1,0.66,-0.15
